# Screens as filed in PubChem.
# TRPV1 potentiator – potentiators of human vanilloid receptor 1 (TRPV1) | potentiation, % at 8.33 µM | TRPV1-expressing cells, Fluo-8 calcium influx, capsaicin EC20 potentiation; host cell line not named in the record; control for the full effect not named in the record | AID 540277 | 320,000 tested, 0.02% active | Q8NER1; active means potentiation above 80%; inconclusive means 30% to 80%; inactive means below 30%; note: 0% is about no effect
# Target sequence (Q8NER1 whole entry, looked up): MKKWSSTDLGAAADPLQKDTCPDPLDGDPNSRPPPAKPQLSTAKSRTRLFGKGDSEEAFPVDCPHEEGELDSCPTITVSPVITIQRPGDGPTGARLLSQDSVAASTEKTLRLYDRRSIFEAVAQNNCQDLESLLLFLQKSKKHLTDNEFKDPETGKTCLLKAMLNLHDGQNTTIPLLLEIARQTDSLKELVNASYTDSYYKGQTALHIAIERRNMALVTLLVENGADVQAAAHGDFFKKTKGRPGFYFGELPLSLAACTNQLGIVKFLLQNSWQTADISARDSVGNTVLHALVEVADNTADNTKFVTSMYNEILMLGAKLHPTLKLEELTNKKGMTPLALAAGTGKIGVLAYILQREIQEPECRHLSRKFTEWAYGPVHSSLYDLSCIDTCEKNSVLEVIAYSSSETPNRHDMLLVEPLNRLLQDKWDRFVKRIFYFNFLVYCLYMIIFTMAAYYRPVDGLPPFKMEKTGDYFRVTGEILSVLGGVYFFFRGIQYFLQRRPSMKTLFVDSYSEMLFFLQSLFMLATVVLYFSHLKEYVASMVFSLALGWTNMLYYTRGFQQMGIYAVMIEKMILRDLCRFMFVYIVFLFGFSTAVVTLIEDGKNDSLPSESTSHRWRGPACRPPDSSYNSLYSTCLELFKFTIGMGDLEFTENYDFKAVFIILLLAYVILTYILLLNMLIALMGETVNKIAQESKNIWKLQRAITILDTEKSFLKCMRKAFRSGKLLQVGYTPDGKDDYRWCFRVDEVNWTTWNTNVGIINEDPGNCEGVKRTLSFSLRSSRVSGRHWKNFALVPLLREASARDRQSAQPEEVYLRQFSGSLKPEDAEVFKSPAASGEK
#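 Cells expressing TRPV1 were dye-loaded with Fluo-8 and read kinetically: 10 s baseline, 3 min after compound (agonist portion), then 2 min after EC20 capsaicin (allosteric enhancer portion). Calcium-bound dye fluorescence at 480/520 nm.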
# TRPML1 ag – activates the human TRPML1 channel. Q9GZU1. TRPML1-expressing cells, Ca2+ dye fluorescence, FDSS; host cell line not named in the record; reference of the full effect not given here. activation, % (test concentration not listed). 410,000 tested, 0.12% active. AID 624414; in the data active = activation above about 50%; inconclusive = about 30% to 50%; inactive = below about 30%; note: 0% is about no effect; the text of the record puts the active cut at 80%
#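 Agonist activity was taken from a 110 s kinetic Ca2+ dye read on the FDSS after pinning compounds onto TRPML1-DL cells. The cells were seeded at 1,500/well with Tet inducer, incubated about 16 h, then dye-loaded at room temperature.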
# Menin MLL FP FL – displaces fluorescein MLL peptide from human menin; 290,000 tested, under 10 active; Fluorescence polarization, fluorescein-MLL peptide displacement from menin; AID 1766; FP activity change, % at 61.4 µM; inconclusive = falling polarisation curve, or a change in total fluorescence; inactive = total fluorescence flat and polarisation flat or rising; no compound was filed as active; the % refers to the polarisation; negative = inhibition;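 note: % of control where 0% means no effect; inhibitors lower the polarisation; unlabelled MLL peptide was the positive control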
# PINK1 expr mod – changes PINK1 expression; PINK1 immunofluorescence, high-content cytometry, 24 h; Potency, µM (doses to about 76.6 µM), for the others: at the highest dose activation (PINK1 increase), most hits filed as activators; 410,000 tested, 0.2% active; AID 624263; active = well fitted activation curve with a large enough effect; inconclusive = small, poorly fitted or top-dose-only effect; inactive = flat fitted curve, though single readings scatter; cell line not stated here;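 note: potency is the fitted concentration of half-maximal effect; % of control where 0% means no effect; nearly all actives have a fitted effect of over 65% in size; a mitochondrial uncoupler was the plate control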
#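 Fluorescence from anti-PINK1 antibody, together with nuclear and cell stains, was scanned on a laser-scanning cytometer. Before staining, stable-line cells were incubated 24 hours with compounds at 5 concentrations; primary antibody 12 h at 10 degrees C.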
# Sfp inh – Sfp phosphopantetheinyl transferase inhibition. Potency, µM, inactives show max response, negative = inhibition, most hits filed as inhibitors. Q9F4F7. AID 1490. 310,000 tested, 3.5% active. Biochemical Sfp PPTase activity, qHTS; active = well fitted inhibition curve with a large enough effect; inconclusive = small, poorly fitted or top-dose-only effect, or another doubt; inactive = no such curve, though single readings can be large or run the other way;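 note: the enzyme is Sfp with the accession as filed and its product quenches rhodamine fluorescence; potency is the fitted concentration of half-maximal effect; 0% = enzyme reaction without inhibitor and -100% = no enzyme wells; top concentration of the series not given in the record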
#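 Fluorescence-quenching assay: 15 nM Sfp-PPTase preincubated 15 min at room temperature with compound, then 5 uM rhodamine-CoA and 12.5 uM BHQ-2-labelled YbbR peptide added. Fluorescence (ex 525/em 598 nm) read at start and after 30 min; difference gives rate.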
# ClpP mod – qHTS Assay for Activators of ClpP. ATP-dependent Clp protease proteolytic subunit (Bacillus subtilis (strain 168)), P80244. purified B. subtilis ClpP, FRET peptide cleavage, 20 min. Potency, µM (highest dose often 57.5 µM), inactives show top-dose activity change, negative = active. 340,000 tested, 1.9% active. AID 651965, 2013; active = well fitted falling curve with a large enough effect; inconclusive = small, poorly fitted or top-dose-only effect; inactive = no such curve, though single readings can be large or run the other way; note: potency is the fitted concentration of half-maximal effect; the source files actives as falling curves though it sought activators and does not explain the sign; nearly all actives have a fitted effect of over 65% in size; many hits overshoot -100%
# Target sequence (P80244 whole entry, looked up): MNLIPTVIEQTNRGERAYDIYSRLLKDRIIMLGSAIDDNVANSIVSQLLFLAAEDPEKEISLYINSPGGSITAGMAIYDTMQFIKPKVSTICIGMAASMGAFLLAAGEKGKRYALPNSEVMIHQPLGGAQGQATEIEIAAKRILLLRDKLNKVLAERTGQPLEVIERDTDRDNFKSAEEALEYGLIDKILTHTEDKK
#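 Purified B. subtilis ClpP, 10 microg/mL final in Tris/HCl pH8 with KCl, BSA, glycerol and Tween-20, cleaved an Abz/nitrotyrosine-quenched decapeptide. Fluorescence (ex 320, em 430) was read at 0 and 20 min at room temperature. Delta was normalized to 5.8 microM ADEP and DMSO/no-enzyme controls.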
# TRPML1 inh – blocks the human TRPML1 channel; Q9GZU1; TRPML1-inducible cells, Ca2+ dye fluorescence, FDSS; hits give low values; inhibition of EC80 agonist-evoked calcium signal; activity change, negative = inhibition, % (test concentration not listed); 390,000 tested, 0.02% active; in the data active means activity change below about -50%; inconclusive means about -30% to -50%; inactive means above about -30%;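 note: stimulus is agonist 54-4 at its EC80 concentration; % is set by controls: 0 for no effect and ±100 for the full control effect; compound concentration not given in the record; the text of the record puts the active cut at -80%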
#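 Tet-induced TRPML1-DL cells loaded with Ca8 no-wash calcium dye were read kinetically on FDSS. Compound addition was followed by EC80 agonist 54-4 (4 uM final); inhibition was read over 110 s.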
# * hit, by the source's call; u = inconclusive; x = no result given; & = joins results of further samples; [ ] = remark or other dose. Outcome played no part in choosing rows; about 4.4% have a hit in one of these screens.
SMILES,TRPV1 potentiator,TRPML1 ag,Menin MLL FP FL,PINK1 expr mod,Sfp inh,ClpP mod,TRPML1 inh
CC(=O)c1c(C)[nH]c(C(=O)N2CCc3ccccc32)c1C,3.0,-0.7,3.9,9.2%,0.8%,2.1%,-0.9
C/C(Cn1nc([N+](=O)[O-])cc1C)=N\NC(=O)COc1ccc(Cl)cc1Cl,1.5,-0.1,0.0,17.7%,-0.8%,-0.7%,-0.7
CCOC(=O)Cn1c(=O)oc2cc(S(=O)(=O)N3CCCc4ccccc43)ccc21,-18.5,2.4,-0.9,5.9%,-2.2%,1.0%,-1.4
COc1cc(OC)cc(C(=O)NNC(=O)CCc2ccccc2)c1,3.1,1.9,2.7,-1.6%,1.0%,-3.4%,4.5
COC(=O)c1ccc(Oc2nc(NC(C)(C)C)nc(N3CCOCC3)n2)cc1,3.1,x,0.7,x,12.8%,x,x
O=[N+]([O-])c1ccc(C(O)CN2CCN(Cc3ccccc3)CC2)cc1 (centres undefined),-1.6,0.6,-0.5,3.0%,18.5%,x,12.9
COC(=O)c1cccnc1NC(=S)NC(C)C,-2.2,0.0,2.1,1.9%,-15.4%,x,10.5
CCCCCNC(=O)Cc1cc(=O)[nH]c(=O)[nH]1,-4.4,0.0,2.4,0.2%,6.2%,1.3%,4.1
CCOC(=O)CSc1nnc(NC(=O)c2cccc(S(=O)(=O)N3CCCCC3)c2)s1,-29.6,-0.6,-0.4,0.2%[38.3 µM],19.0%,0.8%,-5.1
N#CCc1nc(CSc2nc3ccccc3s2)cs1,-0.6,0.0,-1.4,13.0%[38.3 µM],9.9%,-0.9%,-5.7
O=C(OCCN1C(=O)c2ccccc2C1=O)c1cc2ccccc2o1,13.6,2.0,0.4,-1.2%,11.2%,-1.4%,35.8
Cc1cccc(NC(=O)/C(C#N)=C/c2ccc(Cl)cc2)n1,27.7,2.0,0.3,1.3%,3.9%,-11.2%,-27.7
CC1CCc2nc3ncn(Cc4ccccc4F)c(=O)c3cc2C1 (centres undefined),x,0.5,x,0.1%,x,-3.0%,-5.9
Cc1noc(C)c1COc1cccc(C(=O)NC(C)(C)C)c1,-5.4,-0.3,-3.5,1.1%,9.3%,1.5%,-11.8
Nc1cccc[n+]1C(c1ccnc2ccccc12)[n+]1ccccc1N,x,2.2,x,-0.1%,x,-22.0%,x
CN(CC(=O)Nc1ccc(N2CCOCC2)cc1)C(=O)C1CCCC1,3.2,-0.1,-0.4,4.6%,15.7%,x,21.5
O=C1NCCN(CC2CCN(CCc3ccc(Cl)c(Cl)c3)CC2)C1=O,x,0.0,x,1.0%,x,-1.5%,-10.1
Nc1cccc(Nc2ccccc2)c1,7.3,-0.1,8.9,-0.6%,-8.6%,-0.5%,-5.7
CCC(CO)Oc1cc(NC(=O)c2cccc3ccccc23)c2ncn(C(C)C)c2c1 (centres undefined),x,0.5,x,-0.6%,x,-14.5%,-5.9
CN1c2ccc([N+](=O)[O-])cc2N(C)C1(C)c1ccccc1 (centres undefined),0.2,1.6,-1.7,5.4%,u,x,78.6
O=C(Nc1ccc2c(c1)CN(C(=O)Nc1ccc(F)cc1)CC2)c1ccccn1,x,1.0,x,5.8%,x,-4.0%,-1.8
O=C(NC1CCCCC1)c1cc(C(=O)c2ccccc2Br)c[nH]1,-1.7,1.3,-2.3,0.4%,10.8%,-1.4%,37.0
COc1ccc(-c2noc(CSCC(=O)Nc3cccc(C(F)(F)F)c3)n2)cc1OC,x,0.8,x,1.0%,x,-2.0%,17.1
O=C(Nc1nccs1)c1cccnc1,7.8,-1.0,2.5,0.1%,6.9%,-1.7%,-8.5
Cc1ccc(-c2cc(=O)c3cc(C)ccc3[nH]2)cc1,-7.1,-0.8,0.1[94.6 µM],11.8%,31.1%&15.5%,5.6%,0.0

# For reference, some entries already given.
SMILES,TRPV1 potentiator,TRPML1 ag,Menin MLL FP FL,PINK1 expr mod,Sfp inh,ClpP mod,TRPML1 inh
CN1c2ccc([N+](=O)[O-])cc2N(C)C1(C)c1ccccc1 (centres undefined),0.2,1.6,-1.7,5.4%,u,x,78.6
O=C(Nc1ccc2c(c1)CN(C(=O)Nc1ccc(F)cc1)CC2)c1ccccn1,x,1.0,x,5.8%,x,-4.0%,-1.8
O=C(NC1CCCCC1)c1cc(C(=O)c2ccccc2Br)c[nH]1,-1.7,1.3,-2.3,0.4%,10.8%,-1.4%,37.0
COc1ccc(-c2noc(CSCC(=O)Nc3cccc(C(F)(F)F)c3)n2)cc1OC,x,0.8,x,1.0%,x,-2.0%,17.1
O=C(Nc1nccs1)c1cccnc1,7.8,-1.0,2.5,0.1%,6.9%,-1.7%,-8.5
Cc1ccc(-c2cc(=O)c3cc(C)ccc3[nH]2)cc1,-7.1,-0.8,0.1[94.6 µM],11.8%,31.1%&15.5%,5.6%,0.0

# Full records from above.
# `O=C(OCCN1C(=O)c2ccccc2C1=O)c1cc2ccccc2o1` across the screens: TRPV1 potentiator = 13.6; TRPML1 ag = 2.0; Menin MLL FP FL = 0.4; PINK1 expr mod = -1.2%; Sfp inh = 11.2%; ClpP mod = -1.4%; TRPML1 inh = 35.8
# `Cc1noc(C)c1COc1cccc(C(=O)NC(C)(C)C)c1` across the screens: TRPV1 potentiator = -5.4; TRPML1 ag = -0.3; Menin MLL FP FL = -3.5; PINK1 expr mod = 1.1%; Sfp inh = 9.3%; ClpP mod = 1.5%; TRPML1 inh = -11.8

# The list continues.
SMILES,TRPV1 potentiator,TRPML1 ag,Menin MLL FP FL,PINK1 expr mod,Sfp inh,ClpP mod,TRPML1 inh
O=C(O)Cc1sc(Nc2ccccc2Cl)nc1-c1ccccc1,x,-0.7,x,1.2%,x,-0.2%,8.1
O=C(NCCSCc1ccccc1)c1cc(S(=O)(=O)N2CCOCC2)ccc1F,-11.4,1.4,2.0,-0.8%,7.8%,-1.4%,-4.6
O=S(=O)(Nc1ccc(N2CCCCC2)cc1)c1cccs1,-16.8,0.5,-1.8,-5.4%[38.3 µM],-23.9%,-1.4%,11.0
COc1ccc(C(C)(C)C)cc1NC(=O)C1CC=CCC1C(=O)O (centres undefined),4.1,1.6,-1.2,9.1%[38.3 µM],22.1%,0.6%,-6.7
NS(=O)(=O)c1ccc(CCNC(=O)COC(=O)C2CCC2)cc1,-12.6,2.0,-0.6,1.4%,9.6%,1.4%,6.3
CCOC(=O)N1CCN(C(=O)Cc2ccc(C)cc2)CC1,8.7,0.6,4.8,-6.6%[38.3 µM],16.0%,-1.8%,-13.0
Cc1cc(OCc2cc(C(=O)NC(C)c3cnn(C)c3)no2)cc(C)c1Cl (centres undefined),x,-0.8,x,2.1%,x,1.2%,-9.5
CCOc1ccc(S(=O)(=O)NCC(c2ccc(N(C)C)cc2)N2CCc3ccccc32)cc1 (centres undefined),x,-0.4,x,1.4%,x,-16.6%,9.3
CC1(C)C(=O)NCCN1C(=O)CSc1nccc(-c2ccc(Br)cc2)n1,-27.3,4.5,2.9,2.8%[38.3 µM],13.0%,-4.2%,2.4
COc1cccc(NC(=O)C2CCCN(c3ncnc4c3nc3n4CCCCC3)C2)c1 (centres undefined),-12.2,1.6,0.6,2.9%,-0.3%,x,2.9
O=C(CCc1nc2ccccc2c(=O)[nH]1)OCC(=O)c1cccc(Cl)c1,7.0,0.1,2.1,0.4%,8.3%,-7.7%,-15.1
CCCCCCNC(=O)Cc1ccc(Br)cc1,18.8,0.0,0.9,4.3%,-19.5%,x,13.9
Cc1ccc2cc(C3CC(c4ccco4)=NN3S(=O)(=O)c3ccccc3)c(Cl)nc2c1 (centres undefined),-9.2,2.4,9.3,1.0%,19.3%,-4.6%,27.7
COc1ccc(/C=N/NS(=O)(=O)c2ccc(F)cc2)cc1COc1cc(F)ccc1[N+](=O)[O-],1.3,1.7,1.4,2.2%,-25.9%,x,-2.1
COc1ccc(/C=C/C(=O)c2ccccc2O)cc1,-11.3,0.4,-1.5[11.7 µM],0.1%,u,1.5%,-2.4
CCc1ccccc1NC(=O)c1cnn(-c2ccc(F)cc2)c1C1CCNCC1,x,2.1,x,-4.1%,x,1.8%,-5.6
CCCCC(C)(O)C/C=C/[C@H]1[C@H](O)CC(=O)[C@@H]1CCCCCCC(=O)OC (some centres undefined),-7.8,x,-4.3&0.7&1.5,x,8.9%&-2.6%&3.1%,x,x
COc1ccc(OC)c(-c2cc(C(=O)NCCc3ccccc3)c3c(-c4ccc(C)cc4)[nH]nc3n2)c1,x,3.6,x,0.4%,x,3.8%,-2.3
Cc1ccc(C(C)NC(=O)/C(C#N)=C\c2c(C)[nH]c3ccccc23)cc1 (centres undefined),2.0,1.0,0.7,1.1%[38.3 µM],17.1%,-1.4%,-3.8
Cc1ccc(S(=O)(=O)NCC(=O)OC(C)C(=O)NC2CCCCC2C)cc1C (centres undefined),-7.7,-0.9,x,4.7%,x,-3.3%,-3.5
CC(=O)Nc1ccc(NC(=O)c2c([N+](=O)[O-])c(C(C)(C)C)nn2C)cc1,-3.1,0.7,-0.6,-0.4%,29.6%,x,-14.4
COC(=O)/C(C#N)=C/c1cc(C)sc1C,1.8,0.1,-1.2,-0.7%,-1.4%,x,6.4
COc1ccc(N(Cc2cccs2)C(=O)c2ccccc2C)cc1,x,1.7,x,6.1%,x,0.3%,0.0
CC(=O)Nc1cccc(C(=O)N/N=C/c2c[nH]c3ccccc23)c1,-2.2,-1.0,-5.0,-0.2%,6.7%,-0.4%,8.5
CC(CNC(=O)c1ccc(Nc2nc3ccccc3n3nnnc23)cc1)c1ccccc1 (centres undefined),x,-0.8,x,4.1%,x,3.8%,u
N=c1sccn1CC(=O)Nc1cccc(S(=O)(=O)N2CCCCCC2)c1,-0.9,0.6,-1.6,0.6%,8.6%,-0.9%,11.3
CCOc1ccc(NC(=O)CN(C)C(=O)c2nc3nc(C)cc(C)n3n2)cc1OCC,16.3,0.0,x,-0.1%,x,0.1%,2.8
c1ccc(OCCOc2ncnc3ccccc23)cc1,-9.7,-0.9,3.6,2.6%,4.3%,0.3%,3.5
